High-throughput results as filed in PubChem.
gsp ag: qHTS for Agonist of gsp, the Etiologic Mutation Responsible for Fibrous Dysplasia/McCune-Albright Syndrome: qHTS; gsp mutant cells, cAMP HTRF, 30 min; control for the full effect not named in the record; Potency, µM (doses to about 76.9 µM), inactives show at the top dose activation (cAMP increase), most hits filed as activators; 340,000 tested, 0.13% active; active = well fitted activation curve with a large enough effect; inconclusive = small, poorly fitted or top-dose-only effect, or another doubt; inactive = no such curve, though single readings can be large or run the other way; cell line not stated here;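 note: phosphodiesterase inhibitor Ro 20-1724 added with compounds to block cAMP breakdown; potency is the fitted concentration of half-maximal effect; nearly all actives have a fitted effect of over 60% in size; about a fifth of the inactives were tested at one dose only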
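Cells stably selected in G418 were plated at 2000/well, grown 16-24 hr, then given compounds in DMSO with the PDE inhibitor […] (300 uM solution added) for 30 min at 37C; cAMP was read by HTRF.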
ClpP mod: qHTS Assay for Activators of ClpP | purified B. subtilis ClpP, FRET peptide cleavage, 20 min | Potency, µM (titrated, usually from 57.5 µM), for inactives: at the highest dose activity change, negative = active | 340,000 tested, 1.9% active | AID 651965, 2013; active = well fitted falling curve with a large enough effect; inconclusive = small, poorly fitted or top-dose-only effect; inactive = no such curve, though single readings can be large or run the other way; note: potency is the fitted concentration of half-maximal effect; the source files actives as falling curves though it sought activators and does not explain the sign; nearly all actives have a fitted effect of over 65% in size; many hits overshoot -100%
Target sequence (P80244 whole entry, looked up): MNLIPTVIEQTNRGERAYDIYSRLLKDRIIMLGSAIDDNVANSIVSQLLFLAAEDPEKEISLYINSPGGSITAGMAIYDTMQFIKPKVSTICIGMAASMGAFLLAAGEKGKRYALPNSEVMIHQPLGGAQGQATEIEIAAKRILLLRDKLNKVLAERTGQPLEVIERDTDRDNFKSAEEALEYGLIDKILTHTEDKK
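Buffer: 100 mM Tris/HCl pH8, 100 mM KCl, 0.05% low protease BSA, 2.5% glycerol, 0.01% Tween-20. ClpP 10 microg/mL final; 20 min RT; delta FRET normalized to ADEP and DMSO controls.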
D2 potentiator: Beta-Arrestin HTS for Positive Allosteric Modulators of the Human D2 Dopamine Receptor: Potentiators. D(2) dopamine receptor (Homo sapiens), P14416. DiscoveRx D2 beta-arrestin cells, luminescence, 90 min; 100% = 57 uM dopamine signal. potentiation, % (concentration not given with the values). 360,000 tested, 0.23% active; active = potentiation of 50% or more; inconclusive = 30% to 50%; inactive = 30% or less;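 note: compound concentration not given in the record; tested on top of an EC20 dose of dopamine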
Target sequence (P14416 whole entry, looked up): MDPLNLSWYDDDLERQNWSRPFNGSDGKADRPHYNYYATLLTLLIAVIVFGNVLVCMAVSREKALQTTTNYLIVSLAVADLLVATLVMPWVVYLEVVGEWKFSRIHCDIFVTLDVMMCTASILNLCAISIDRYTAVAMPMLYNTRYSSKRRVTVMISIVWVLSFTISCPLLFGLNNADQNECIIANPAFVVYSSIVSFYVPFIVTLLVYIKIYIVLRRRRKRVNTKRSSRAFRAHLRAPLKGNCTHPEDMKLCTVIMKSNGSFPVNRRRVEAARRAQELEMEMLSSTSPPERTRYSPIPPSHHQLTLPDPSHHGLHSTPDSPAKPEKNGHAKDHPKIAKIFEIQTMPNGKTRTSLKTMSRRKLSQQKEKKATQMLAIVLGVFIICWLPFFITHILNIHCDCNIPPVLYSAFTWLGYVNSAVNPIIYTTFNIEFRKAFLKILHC
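PathHunter beta-arrestin assay in DiscoveRx D2 cells. Compounds were added with an EC20 of dopamine (50 nM final) for 90 min at 37 deg C. Luminescence was read 1 h after detection reagent, with 57 uM dopamine as the EC100 control.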
gsp antag: qHTS for Antagonists of gsp, the Etiologic Mutation Responsible for Fibrous Dysplasia/McCune-Albright Syndrome: qHTS | gsp-mutant cells, cAMP HTRF, 30 min; control for the full effect not named in the record | Potency, µM (titrated, usually from 76.9 µM), without a hit: at the top dose activity change, negative = inhibition, actives largely listed as inhibitors | 340,000 tested, 0.4% active | AID 624288, 2012; active = falling curve of any shape with a large fitted effect; inconclusive = falling curve, mostly with a smaller effect; inactive = flat or rising curve; cell line not stated here;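 note: intracellular cAMP measured with PDE inhibitor Ro 20-1724 present during compound exposure; potency is the fitted concentration of half-maximal effect; % is set by controls: 0 for no effect and ±100 for the full control effect; nearly all actives have a fitted effect of over 65% in size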
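HTRF cAMP read-out (cAMP-d2 plus anti-cAMP antibody-K in lysis buffer, 30 min RT). Before lysis, cells are exposed to compounds with […] for 30 min at 37C in DPBS containing Ca/Mg, BSA and Tween 20.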
Menin-MLL FL inh: qHTS Assay for Inhibitors Targeting the Menin-MLL Interaction in MLL Related Leukemias: Competition With Fluorescein Labeled MLL-derived Peptide. Fluorescence polarization, fluorescein-MLL peptide displacement from menin. 290,000 tested, under 10 active. FP activity change, % at 61.4 µM; inconclusive = falling polarisation curve, or a change in total fluorescence; inactive = total fluorescence flat and polarisation flat or rising; no compound was filed as active; the % refers to the polarisation; negative = inhibition;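 note: % of control where 0% means no effect; inhibitors lower the polarisation; unlabelled MLL peptide was the positive control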
TRPV1 potentiator: HTS Assay for Compounds that Act as Potentiators of the Vanilloid Receptor 1; TRPV1-expressing cells, Fluo-8 calcium influx, capsaicin EC20 potentiation; host cell line not named in the record; control for the full effect not named in the record; potentiation, % at 8.33 µM; Transient receptor potential cation channel subfamily V member 1 (Homo sapiens), Q8NER1; 320,000 tested, 0.02% active; active means potentiation above 80%; inconclusive means 30% to 80%; inactive means below 30%; note: 0% is about no effect
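TRPV1-expressing cells were cultured overnight at 35.5C and loaded with Fluo-8 calcium dye for 40 to 90 min at room temperature. After a 10 s baseline, compound was added and calcium influx was read kinetically for 3 min (ex 480/em 520 nm).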
Sfp PPTase inh: qHTS Assay for Inhibitors of Bacillus subtilis Sfp phosphopantetheinyl transferase (PPTase) | Biochemical Sfp PPTase activity, qHTS | Potency, µM, inactives show max response, negative = inhibition, most hits filed as inhibitors | 310,000 tested, 3.5% active; active = well fitted inhibition curve with a large enough effect; inconclusive = small, poorly fitted or top-dose-only effect, or another doubt; inactive = no such curve, though single readings can be large or run the other way;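 note: the enzyme is Sfp with the accession as filed and its product quenches rhodamine fluorescence; potency is the fitted concentration of half-maximal effect; 0% = enzyme reaction without inhibitor and -100% = no enzyme wells; top concentration of the series not given in the record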
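Buffer: 50 mM Hepes-Na pH 7.6, 10 mM MgCl2, 0.01% Nonidet P-40, 0.01% BSA. Enzyme 15 nM, pre-exposed to compound 15 min; substrates then added and fluorescence change tracked over 30 min.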
Starred values were filed as active, the others as inactive; ? = inconclusive; . = not tested or not shown; [ ] = remark or other dose.

SMILES	gsp ag	ClpP mod	D2 potentiator	gsp antag	Menin-MLL FL inh	TRPV1 potentiator	Sfp PPTase inh
Cc1cc(C(=O)N2CCCC(Nc3ccccc3)C2)c2ccc(F)cc2n1 (stereo not given)	-9%	-2.4%	-7	9%	8.1	-21	15%
CCN1CCN(CCCNC(=O)c2ccc(/C=C3/Oc4ccccc4N(Cc4cccc(C)c4)C3=O)cc2)CC1	?	4.1%	-7	-5%	.	-6	40µM*
CC(NC(=O)COc1ccccc1)C(=O)N1CCN(c2ccc(F)cc2)CC1 (stereo not given)	-53%	-0.4%	3	12%	.	.	.
CCSc1nnc(NC(=O)Cc2ccccc2OC)s1	?	-1.1%	-13	23%	1.7	-14	9%
O=C(Cc1ccccc1)NNS(=O)(=O)c1ccc(F)cc1	32%	-1.4%	-4	-3%	0.9	-5	8%
CCn1c(CN2C(=O)CSc3ccccc32)n[nH]c1=S	19%[15.4 µM]	.	-31	-9%	3.7	-25	-9%
COc1ccc(N2CCN(c3ccc(NC(=O)c4ccc5c(c4)OCO5)cc3C#N)CC2)cc1	?	-2.5%	-3	7%	-0.6	-6	1%
CN1CCc2c(sc3c2C(=O)NC(c2cn(Cc4ccccc4)c4ccccc24)N3)C1 (stereo not given)	11%	16µM*	-36	9%	?	14	-22%
CCOC(=O)C1CCN(C(=O)c2ccc3c(c2)NC(=O)/C(=C\c2cccc(C)c2)S3)CC1	8%	-14%	-6	?	9.1	5	-12%
COc1ccc(OC)c(CCNC(=O)c2ccccc2NC(=O)C2=C(C)OCCS2)c1	18%	-1.1%	-9	?	.	-2	10%
COc1ccc(NC(=O)CN(C)C(=O)c2ccc(NS(=O)(=O)c3cccc([N+](=O)[O-])c3)cc2)cc1	-7%[15.4 µM]	.	-66	-7%	.	0	.
COc1ccc(NC(=O)CN(C)C(=O)c2cccc(S(=O)(=O)N3CCN(c4ccccc4)CC3)c2)cc1	-2%[15.4 µM]	-1.9%	-8	-18%	.	-3	.
O=C(CSc1nnc(-c2cccnc2)n1-c1ccccc1)Nc1ccccc1	-24%	0.8%	-3	-7%	2.3	0	13%
Cc1ccccc1-c1nnc(SCCC(=O)N2CCOCC2)o1	-3%[15.4 µM]	.	7	13%	0.1	13	-16%
Cc1onc(-c2ccccc2Cl)c1C(=O)N(C)C1CCCCC1	-16%	1.8%	-1	3%	4.7	2	-9%
Cc1cc[n+](C(C)C(=O)c2ccc(-c3ccccc3)cc2)cc1 (stereo not given)	14%[15.4 µM]	.	-23	.	-4.7	-10	-1%
O=C(NCc1ccc(F)cc1Cl)C1CCN(S(=O)(=O)N2CCCCC2)CC1	28%	1.5%	7	2%	-1.7	-7	12%
COc1ccc(N(CC(=O)NCc2ccc3c(c2)OCO3)S(=O)(=O)c2ccc(O)c(C(=O)O)c2)cc1	-18%	-5.3%	-3	3%	.	.	.
COc1ccc(/C=C/c2c([N+](=O)[O-])c(=O)n(C)c(=O)n2C)cc1	11%[15.4 µM]	.	-35	-20%	-4.7	24	-12%
CCOc1ccc(NC(=O)CSc2nc(N)c(-c3ccccc3)c(=O)[nH]2)cc1	18%[15.4 µM]	.	-17	1%	2.8	17	18%
O=C(NC1CCCCC1)C(c1ccc(F)cc1)N(Cc1ccccc1)C(=O)CN1C(=O)c2ccccc2S1(=O)=O (stereo not given)	18%	0.9%	-7	?	-3.4	-2	29%
CCc1cccc(NS(=O)(=O)c2ccc3c(c2)CCC(=O)N3)c1	?	.	-2	6%	-1.2	1	12%
c1ccc2sc(NN=C3CCCCCC3)nc2c1	-20%	.	-9	-18%	-0.5	-10	?
Cc1ccccc1NNC(=O)C(=O)NNc1ccccc1C	?	-2.2%	-17	7%	1.3	-8	-17%
O=C(Nc1ccc(S(=O)(=O)Nc2ccnn2-c2ccccc2)cc1)C(F)(F)F	3%[15.4 µM]	.	2	1%	0.7	14	9%
Cc1cc(C)cc(NC(=S)N2CCC(NC(=O)C3CC3)CC2)c1	14%[15.4 µM]	.	-2	5%	0.2	-16	20%
Cc1cccc(OCC(=O)Nc2ccccc2-c2ccccc2)c1	-12%	0.3%	1	-10%	0.8	-1	-3%
O=C1NN=C(c2ccccc2)CC1c1c[nH]c2ccccc12 (stereo not given)	-33%[inhibitor]	-0.8%	-2	4%	0.4	-2	-7%
O=C(COC(=O)CCCSc1nc2ccccc2[nH]1)Nc1cccc(F)c1	-17%[15.4 µM]	-1.2%	3	-2%	7.7	0	3%
COc1ccccc1NC(=O)Cn1nc(-c2ccc(Cl)cc2)c2ccccc2c1=O	-15%	-0.8%	-22	14%	3.2	7	?
Cc1nc(SCCOc2ccccc2F)[nH]c(=O)c1Cc1ccccc1	?	1.9%	-1	-1%	-1.9	1	16%
CCCc1nc2scc(-c3ccccc3)c2c(=O)n1N	-46%[inhibitor]	0.7%	0	-23%	5.9	-23	-9%
COc1ccc(OC)c(C2C/C(=N/O)C(C)C(c3cc(OC)ccc3OC)N2)c1 (stereo not given)	-31%[inhibitor]	.	-4	8%	.	.	.
COc1cccc(NC(=O)CN(C)C(C)C(=O)NC(C)c2ccc(Cl)cc2Cl)c1 (stereo not given)	-16%	2.1%	10	1%	.	-6	.
COc1ccc(-c2nc(CN(CC3CCC(=O)N3)C(C)C)c(C)o2)c(C)c1C (stereo not given)	20%[15.4 µM]	.	-14	6%	4.0	18	2%
COc1cc(/C=C/C(C)=O)cc(OC)c1OC	-11%	-0.6%	-4	-2%	0.9	-1	13%
CCc1nnc(NC(=O)CSc2ncnc3scc(-c4ccc(C)cc4)c23)s1	13%	5.4%	-2	-22%	13	7	4%
CC(C)Sc1nc2c([nH]1)c(=N)ncn2Cc1ccccc1	-8%	-2.5%	-9	10%	1.8	0	10%
Cc1onc(C(=O)NN)c1-c1csc(COc2ccc(Cl)cc2)n1	6%[15.4 µM]	0.9%	7	-24%	-0.2	.	8%
CCc1cc2ccc(C)cc2nc1SCC(=O)NNC(=O)c1ccco1	-38%[inhibitor]	0.5%	1	-13%	4.2	5	32%[activator]
O=C(CN1CCN(S(=O)(=O)c2ccccc2)CC1)Nc1ccccc1C(=O)c1ccccc1	-7%	-0.4%	-10	-30%	4.6	-7	-11%
Cc1ccc(N2C(=O)c3cccc4cccc(c34)C2=O)cc1	-8%[15.4 µM]	.	-4	6%	-1.2	10	12%
CCN(c1ccccc1)S(=O)(=O)c1ccc(C(=O)Nc2ccccn2)cc1	-6%[15.4 µM]	1.6%	1	-20%	.	2	.
O=C1Nc2ccccc2C1=Nc1ccccc1-c1ccccc1	20%	?	-45	-18%	.	.	.
COc1ccc(C(=O)NCC(=O)NCC(=O)OCC(=O)c2ccc(C)cc2)cc1	-57%[inhibitor]	1.2%	-11	4%	5.0	5	3%
O=C(CN(Cc1ccc(Cl)cc1)C(=O)CNS(=O)(=O)c1ccccc1)NCC1CCCO1 (stereo not given)	-2%[15.4 µM]	0.1%	-4	-15%	-0.1	-1	9%
COc1ccc(C(=O)c2c3ccc(OC)cc3[n+]([O-])n2CCCC(N)=O)cc1	4%	-2.3%	-2	-10%	.	?	.
CC1CCCCC1NC(=O)CCC(=O)N1CCOc2ccc(Cl)cc21 (stereo not given)	29%	-2.2%	-30	3%	.	0	12%
Cc1cccc(NC(=O)CCN2CCCCC2)c1	5%[15.4 µM]	-8.4%	-13	-3%	1.5	-14	-1%
N#C/C(=C\c1ccc(Sc2ccccc2)o1)c1nc2ccccc2[nH]1	-1%	0.0%	-2	?	?	4	-1%
CN1C(=O)[C@H]2[C@@H](c3ccc(C(F)(F)F)cc3)N[C@]3(CCCN(Cc4ccco4)C3=O)[C@H]2C1=O	45%	-0.3%	1	.	.	.	.
CCC1=NN2C(=N)/C(=C\c3cccn3-c3c(C)cccc3C)C(=O)N=C2S1	-26%	-2.0%	-1	?	-6.7	1	56µM*
Cc1noc(C)c1S(=O)(=O)Nc1ccc2c(c1)C(=O)N([C@H](C)CO)C[C@H](C)[C@@H](CN(C)S(=O)(=O)c1ccccc1)O2	?	-5.9%	-8	7%	.	.	.
O=C(NCCN1CCOCC1)c1ccc2c(c1)N(Cc1ccccc1F)C(=O)c1ccccc1S2	-7%	-0.6%	-11	6%	-1.2	-2	-19%
O=C(CN1CCN(Cc2ccccc2)CC1)NCCc1ccccc1	-1%[15.4 µM]	6.3µM*	-1	12%	-0.7	2	0%
Cc1ccc(S(=O)(=O)NC(CC(=O)NCC2CCCO2)c2ccco2)cc1 (stereo not given)	5%	-1.2%	-3	6%	-6.2	9	7%
Cc1cc(-c2ccc(C)c(S(=O)(=O)N3CCN(c4ccc(F)cc4)CC3)c2)on1	?	.	0	2%	.	-1	10%
Cc1noc(C)c1CSc1nc2[nH]ncc2c(=O)n1-c1ccccc1	?	-1.9%	-6	32%[activator]	3.9	15	2%
CN(CC(O)COCc1ccccc1F)C1CCCCC1 (stereo not given)	-1%	-2.4%	-16	-20%	1.4	?	16%
COc1ccc2c(CC(=O)NNC(=O)c3ccc(O)cc3)coc2c1	2%	.	-3	-12%	.	.	.
COc1ccc(NC(=O)C2CCCN(C(=O)Nc3ccc(F)cc3)C2)cc1OC (stereo not given)	2%	.	-1	4%	-5.9	1	9%
CCNC(=O)c1ccccc1CCc1ccccc1	-27%	-1.1%	-7	8%	-3.1	-6	25%
Cn1nc(C(=O)N2CCc3ccccc32)c2ccccc2c1=O	3%	-0.9%	-8	9%	2.1	5	15%

Two of the compounds above, with each value named.
CC1CCCCC1NC(=O)CCC(=O)N1CCOc2ccc(Cl)cc21 (stereo not given)
  gsp ag: 29%
  ClpP mod: -2.2%
  D2 potentiator: -30
  gsp antag: 3%
  Menin-MLL FL inh: .
  TRPV1 potentiator: 0
  Sfp PPTase inh: 12%
Cn1nc(C(=O)N2CCc3ccccc32)c2ccccc2c1=O
  gsp ag: 3%
  ClpP mod: -0.9%
  D2 potentiator: -8
  gsp antag: 9%
  Menin-MLL FL inh: 2.1
  TRPV1 potentiator: 5
  Sfp PPTase inh: 15%
